nsP2pro primary: blocks chikungunya virus nsP2 protease peptide cleavage. Q8JUX6. FRET peptide cleavage, nsP2pro, fluorescence 1 h. Potency, µM (top dose mostly 24.9 µM), for the others: at the top dose activity change, negative = inhibition, actives largely listed as inhibitors. 31,000 tested, 1.1% active; active means well fitted inhibition curve with a large enough effect; inconclusive means small, poorly fitted or top-dose-only effect; inactive means no such curve, though single readings can be large or run the other way; also: nearly all actives have a fitted effect of over 60% in size; a reference inhibitor and vehicle were the controls
Target sequence (Q8JUX6 whole entry, looked up): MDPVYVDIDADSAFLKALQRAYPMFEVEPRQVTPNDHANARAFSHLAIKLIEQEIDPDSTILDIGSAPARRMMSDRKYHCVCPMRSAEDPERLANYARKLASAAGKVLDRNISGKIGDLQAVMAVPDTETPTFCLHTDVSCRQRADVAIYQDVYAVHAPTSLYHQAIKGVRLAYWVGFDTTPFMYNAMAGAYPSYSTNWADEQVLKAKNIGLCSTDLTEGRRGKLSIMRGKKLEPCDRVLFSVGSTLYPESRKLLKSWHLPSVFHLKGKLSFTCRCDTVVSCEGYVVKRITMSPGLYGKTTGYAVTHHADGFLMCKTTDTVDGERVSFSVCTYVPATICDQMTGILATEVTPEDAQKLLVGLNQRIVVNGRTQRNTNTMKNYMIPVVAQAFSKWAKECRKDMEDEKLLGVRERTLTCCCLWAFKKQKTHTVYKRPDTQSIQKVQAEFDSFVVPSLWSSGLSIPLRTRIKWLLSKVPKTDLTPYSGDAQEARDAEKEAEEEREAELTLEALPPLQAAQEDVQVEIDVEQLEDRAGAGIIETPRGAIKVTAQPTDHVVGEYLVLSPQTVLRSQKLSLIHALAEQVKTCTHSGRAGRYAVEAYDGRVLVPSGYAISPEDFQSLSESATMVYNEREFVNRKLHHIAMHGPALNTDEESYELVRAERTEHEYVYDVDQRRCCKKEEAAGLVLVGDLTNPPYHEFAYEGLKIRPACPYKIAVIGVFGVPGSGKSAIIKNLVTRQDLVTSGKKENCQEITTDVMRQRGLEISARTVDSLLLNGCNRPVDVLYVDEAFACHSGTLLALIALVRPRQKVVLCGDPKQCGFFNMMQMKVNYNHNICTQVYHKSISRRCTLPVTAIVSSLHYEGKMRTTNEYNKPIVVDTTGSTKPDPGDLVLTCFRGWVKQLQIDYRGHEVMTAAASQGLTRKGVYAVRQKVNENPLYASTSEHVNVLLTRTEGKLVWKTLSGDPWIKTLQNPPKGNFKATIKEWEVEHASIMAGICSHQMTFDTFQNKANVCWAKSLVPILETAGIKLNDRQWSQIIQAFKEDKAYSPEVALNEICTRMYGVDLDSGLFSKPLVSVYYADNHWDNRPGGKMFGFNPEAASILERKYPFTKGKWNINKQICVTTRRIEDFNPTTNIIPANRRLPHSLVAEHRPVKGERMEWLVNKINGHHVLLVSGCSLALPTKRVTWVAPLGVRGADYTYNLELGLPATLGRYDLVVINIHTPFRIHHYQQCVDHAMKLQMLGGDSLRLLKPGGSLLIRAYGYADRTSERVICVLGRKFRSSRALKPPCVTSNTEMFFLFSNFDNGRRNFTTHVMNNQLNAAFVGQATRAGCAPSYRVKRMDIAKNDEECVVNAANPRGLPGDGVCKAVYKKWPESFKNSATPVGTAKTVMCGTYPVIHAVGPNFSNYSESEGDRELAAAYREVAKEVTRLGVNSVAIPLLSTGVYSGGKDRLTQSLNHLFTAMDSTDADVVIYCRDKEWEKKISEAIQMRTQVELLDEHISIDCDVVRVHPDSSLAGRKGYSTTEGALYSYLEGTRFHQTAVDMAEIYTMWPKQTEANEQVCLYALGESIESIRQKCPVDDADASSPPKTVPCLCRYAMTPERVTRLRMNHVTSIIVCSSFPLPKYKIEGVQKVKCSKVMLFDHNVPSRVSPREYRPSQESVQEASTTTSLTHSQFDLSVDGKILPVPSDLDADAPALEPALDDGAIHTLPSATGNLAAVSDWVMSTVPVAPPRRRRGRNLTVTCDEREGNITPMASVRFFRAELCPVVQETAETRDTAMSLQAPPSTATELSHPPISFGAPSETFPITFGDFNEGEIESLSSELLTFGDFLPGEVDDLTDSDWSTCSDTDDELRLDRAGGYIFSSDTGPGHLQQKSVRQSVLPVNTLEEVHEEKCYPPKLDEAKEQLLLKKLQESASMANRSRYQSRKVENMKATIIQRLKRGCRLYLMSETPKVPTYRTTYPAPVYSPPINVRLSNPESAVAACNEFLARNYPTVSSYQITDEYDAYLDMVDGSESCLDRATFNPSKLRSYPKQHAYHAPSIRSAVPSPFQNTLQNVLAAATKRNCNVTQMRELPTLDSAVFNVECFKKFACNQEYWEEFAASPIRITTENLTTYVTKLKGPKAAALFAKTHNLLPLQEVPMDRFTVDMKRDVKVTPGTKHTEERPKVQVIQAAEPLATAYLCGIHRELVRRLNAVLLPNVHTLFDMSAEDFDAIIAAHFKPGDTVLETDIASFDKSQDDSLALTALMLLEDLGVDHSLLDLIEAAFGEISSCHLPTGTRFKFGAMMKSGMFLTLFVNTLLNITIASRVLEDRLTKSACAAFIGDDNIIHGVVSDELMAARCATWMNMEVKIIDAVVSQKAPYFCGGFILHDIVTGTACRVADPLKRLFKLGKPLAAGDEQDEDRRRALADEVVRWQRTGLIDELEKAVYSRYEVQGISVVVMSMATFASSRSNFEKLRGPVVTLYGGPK
Active calls of the source: *; & = joins results of further samples; [ ] = another dose, or the depositor's remark. % is scaled to controls: 0 for no effect and ±100 for the full control effect; potency is read from the fitted curve at half-maximal effect.

For Cc1ccc(NC(=O)CCCn2c(=O)c3cccn3c3ccccc32)cc1Cl the results were nsP2pro primary -22%.
`NCCNc1ccc(NCCN)c2c1C(=O)c1ccncc1C2=O` gave nsP2pro primary 40%[activator].
For CCc1cccc(C)c1NC(=O)Cn1nnc(-c2nc(-c3ccccc3F)no2)c1N the results were nsP2pro primary -26%.
CCC(C)C1NC(=O)C(C(C)=O)=C1O (configuration not stated) was read as nsP2pro primary inconclusive.
Screening CCOc1ccc(-c2cnc(NCc3ccc(OC)cc3OC)n2C)cc1 returned nsP2pro primary 14%.
`COc1cc(Cl)c(NC(=O)CN(C)S(=O)(=O)c2ccc3[nH]c4c(c3c2)CCCC4)c(OC)c1` gave nsP2pro primary -25%.
`NC(CO)C(=O)NNCc1ccc(O)c(O)c1O` (configuration not stated) gave nsP2pro primary 1.8µM*.
`CCOC(=O)c1c(C)[nH]c(C)c1S(=O)(=O)N1CCC(C(=O)Nc2ccc(F)cc2F)CC1` gave nsP2pro primary -16%.
Screening Cc1ccc(-n2c(=O)c3c(C)c(C(=O)N(C)C)sc3n(Cc3ccccc3C)c2=O)cc1C returned nsP2pro primary -15%.
`O=C(c1ccccn1)N1CCN(C(=O)N2CC3CC(C2)[C@H]2CCCC(=O)N2C3)CC1` (some centres not stated) gave nsP2pro primary -1%.
`Cc1cccc(-n2c(Cc3ccccc3)nnc2SCc2nc(-c3cccs3)no2)c1` gave nsP2pro primary -10%.
`Nc1nc(NCc2ccc(Cl)cc2Cl)cc(C2CC(O)C2)n1` (configuration not stated) gave nsP2pro primary -2%.
`O=[S+]([O-])(NCc1nccs1)c1ccc(Nc2nc(-c3ccccc3)cs2)cc1` gave nsP2pro primary 3%.
`Cc1ccccc1CN1CCC(N2CCCC(C(=O)NC3CC3)C2)CC1` (configuration not stated) gave nsP2pro primary -10%.
For COc1ccc(C)cc1NC(=O)CCNC(=O)Cn1ccc2ccccc2c1=O the results were nsP2pro primary -27%.

The closing two entries of the section above are carried over, then new ones follow:
`Cc1ccccc1CN1CCC(N2CCCC(C(=O)NC3CC3)C2)CC1` (configuration not stated) gave nsP2pro primary -10%.
For COc1ccc(C)cc1NC(=O)CCNC(=O)Cn1ccc2ccccc2c1=O the results were nsP2pro primary -27%.
Screening O=C(N[C@@H]1N=C(c2ccccc2F)c2cccc3c2N(CC3)C1=O)c1cc2ccccc2[nH]1 returned nsP2pro primary -5%[10 µM].
Screening Cc1ccccc1C(=O)N1CCc2cc(-c3nc(NC(=O)Cc4ccccc4)sc3C)ccc21 returned nsP2pro primary -5%.
`COCCNC(=O)c1cc(N2CCOCC2)cc2c1OCCN2C` gave nsP2pro primary inconclusive.
Cn1ccc2cc(-c3ccc4ncnc(NCc5ccc6c(c5)OCO6)c4c3)ccc21 was read as nsP2pro primary inactive.
For OC(c1ccccc1)(c1ccccc1)C12CC[N+](CCOCc3ccccc3)(CC1)CC2 the results were nsP2pro primary 7%.
COc1ccc(S(=O)(=O)N2CCOC[C@H](Oc3ccccc3)C2)cc1 was read as nsP2pro primary -2%[39.2 µM].
Cc1noc(C)c1CC(=O)N1CCCCCCNC(=O)[C@@H]2CCCC[C@@H]21 was read as nsP2pro primary -1%.
For CC(=O)OC1C(=O)C2C3OCC4=C3[C@@](C)(CC[C@@H]4O)CC[C@]2(C)[C@H]1C(C)C (some centres not stated) the results were nsP2pro primary -19%.
For CCCSc1nc(-c2ccccc2)[nH]c1S(=O)(=O)c1ccc(C)cc1 the results were nsP2pro primary -27%.
Screening Cc1c(C(=O)OC2CCCCC2)[nH]c2c1C(=O)CC(c1ccccc1Cl)C2 (configuration not stated) returned nsP2pro primary -15%.
For Cc1cc(-c2nnc3n2CCCCC3)c(C)n1-c1ccc(Br)cc1 the results were nsP2pro primary inactive.
`Oc1cc(NCCN2CCOCC2)cc2cccnc12` gave nsP2pro primary inactive.
For NC(=O)N1c2ccccc2CC(=O)c2ccccc21 the results were nsP2pro primary 1%.
`Cc1ccc(NCCN(C)CCNc2ccnc3cc(Cl)ccc23)c2c(=O)c3ccccc3sc12` gave nsP2pro primary 34%[activator][10 µM].
COC1C(=O)N(c2cccc(F)c2)C12CCN(S(=O)(=O)c1cccs1)CC2 (configuration not stated) was read as nsP2pro primary 4%.
Screening O=C(Nc1cccc(C(F)(F)F)c1)c1cccs1 returned nsP2pro primary 5%.
For O=C1CCc2cc(S(=O)(=O)Nc3ccc4ccccc4c3)ccc2N1 the results were nsP2pro primary inactive.
`COc1ccc(C2=Nc3ccc(OC(F)(F)F)cc3NC(c3cccnc3)=N2)cc1` gave nsP2pro primary 4%.
For O=c1cc2nc(-c3ccccc3)nc(SCCN3CCC(F)(F)CC3)n2[nH]1 the results were nsP2pro primary 12%.
For CCOc1ccc(NC(=O)c2ccc3snnc3c2)cc1 the results were nsP2pro primary -12%.
`CN(C)CC1(O)CCC2(CCN(C(=O)c3nccc4ccccc34)CC2)CC1` gave nsP2pro primary inactive.
For Cc1cnc(-c2ccccc2C(C)C)nc1NCc1ccc(-c2nn[nH]n2)cc1 the results were nsP2pro primary inactive.
For CC(=O)/C=C/C1(O)C(C)CC(O[C@@H]2O[C@H](CO)[C@@H](O)[C@H](O)[C@H]2O)CC1(C)C (some centres not stated) the results were nsP2pro primary 6%[10 µM].
COc1ccc(-n2c(=O)c3ccc(C(=O)NCc4ccc(C)cc4)cc3n(CC(=O)Nc3cccc(F)c3)c2=O)cc1 was read as nsP2pro primary inconclusive.
For Nc1ncnc2c1ncn2[C@@H]1O[C@H](CO)[C@@H](O)[C@@H]1O the results were nsP2pro primary inconclusive.
Screening N#Cc1c(-c2ccc(OCCOCCOCCN)cc2)no[n+]1[O-] returned nsP2pro primary 0%.
`COc1ccccc1NC(=O)c1sc2nc3c(c(C(F)(F)F)c2c1N)CN(C(C)=O)CC3` gave nsP2pro primary -9%.
`Cc1ccc(N2C(=S)N[C@H]3[C@@H](O)[C@H](O)C[C@@H](C(=O)N4CCCCC4)[C@H]32)cc1` gave nsP2pro primary inactive.
Screening Cc1cc(F)ccc1NC(=O)CCC1CCCN(C(=O)c2ccc(Cl)s2)C1 (configuration not stated) returned nsP2pro primary -3%.
Screening CCCCOc1ccc(C(=O)NCCS(=O)(=O)N2CCN(c3ccccc3OC)CC2)cc1 returned nsP2pro primary -28%.
For O=C(NC[C@H]1O[C@@H](CO)[C@@H](O)[C@H]1N1CCN(c2ccccn2)CC1)Nc1ccccc1 the results were nsP2pro primary 4%.
`CCC(=O)N1c2ccccc2CC1C(=O)NCCCN1CCN(c2cc(C)ccc2C)CC1` (configuration not stated) gave nsP2pro primary -17%.
`Cc1n[nH]c(C)c1CNc1cc(C2CC(O)C2)ncn1` (configuration not stated) gave nsP2pro primary -7%.
O=C(NCc1cccc(C(F)(F)F)c1)c1ccc2nnc(-c3cc[nH]c3)n2c1 was read as nsP2pro primary inconclusive.
CN1CCCN(S(=O)(=O)c2cccs2)c2ccccc21 was read as nsP2pro primary -28%.
`CS(=O)(=O)c1ccc([C@@H](O)[C@@H](CO)NC(=O)C(Cl)Cl)cc1` gave nsP2pro primary -7%.
O=S(=O)(O)CCCS(=O)(=O)O was read as nsP2pro primary 20%.
`CCc1cc(C(=O)Nc2sc(C)c(CC)c2C#N)no1` gave nsP2pro primary 11µM*.
For COc1ccc([C@H]2C[C@@H](O)[C@@H](O)[C@@H]2NC(=O)C(C)C)cc1 the results were nsP2pro primary -1%[39.2 µM].
Screening CN1CCN(c2cnc3c(O)ccc(C(=O)O)c3c2)CC1 returned nsP2pro primary inactive.
Screening CN(C)C[C@@H]1CN(S(C)(=O)=O)C[C@H]1NC(=O)CC1CCN(C)CC1 returned nsP2pro primary -3%.
Screening Cc1c(P(=S)(c2ccccc2)c2ccccc2)c2ccccc2n1C(=O)Cc1ccccc1 returned nsP2pro primary -11%.
`CCOc1ccc(C2Cn3nnc(-c4nc(-c5ccccc5OC)no4)c3CO2)cc1` (configuration not stated) gave nsP2pro primary inactive.
`CCN(c1cccc(C)c1)S(=O)(=O)c1ccc(-n2cccn2)cc1` gave nsP2pro primary -13%.
`COc1ccc(CCNC(=O)CCCCn2c(=O)c3ccccc3n(CC(=O)Nc3ccc(C)cc3C)c2=O)cc1OC` gave nsP2pro primary -16%.

Already shown: an excerpt of the list.
`CS(=O)(=O)c1ccc([C@@H](O)[C@@H](CO)NC(=O)C(Cl)Cl)cc1` gave nsP2pro primary -7%.
O=S(=O)(O)CCCS(=O)(=O)O was read as nsP2pro primary 20%.
`CCc1cc(C(=O)Nc2sc(C)c(CC)c2C#N)no1` gave nsP2pro primary 11µM*.
For COc1ccc([C@H]2C[C@@H](O)[C@@H](O)[C@@H]2NC(=O)C(C)C)cc1 the results were nsP2pro primary -1%[39.2 µM].

By substructure: those above with a CF3 group (4)
Screening O=C(Nc1cccc(C(F)(F)F)c1)c1cccs1 returned nsP2pro primary 5%.
`COc1ccc(C2=Nc3ccc(OC(F)(F)F)cc3NC(c3cccnc3)=N2)cc1` gave nsP2pro primary 4%.
`COc1ccccc1NC(=O)c1sc2nc3c(c(C(F)(F)F)c2c1N)CN(C(C)=O)CC3` gave nsP2pro primary -9%.
O=C(NCc1cccc(C(F)(F)F)c1)c1ccc2nnc(-c3cc[nH]c3)n2c1 was read as nsP2pro primary inconclusive.

The list continues.
COc1ccc(-c2cc(C(=O)OC(C)C(=O)c3ccccc3)c3cccc(Cl)c3n2)cc1 (configuration not stated) was read as nsP2pro primary -14%.
Screening CCn1c(=O)c2sccc2n2c(CCCC(=O)Nc3ccc(Oc4ccccc4)cc3)nnc12 returned nsP2pro primary -7%.
Screening CC1=C[C@@H](CC#N)[C@H](C(C)C)C[C@H]1CC(=O)N(C)Cc1cccnc1 returned nsP2pro primary inconclusive.
`CC(=O)N1CCN(c2cc(-c3noc([C@@H]4CCCN4Cc4ccccc4)n3)ccn2)CC1` gave nsP2pro primary inactive.
`COc1ccc(CCn2c(=O)c3cccnc3n(CC(=O)Nc3cccc(C)c3)c2=O)cc1OC` gave nsP2pro primary -12%.
For O=C1NC2(CCCN(C(=O)Cc3ccccc3)C2)COc2ccccc21 (configuration not stated) the results were nsP2pro primary inactive.
`Cc1nc([C@H]2CCN(Cc3cccc(OC(F)(F)F)c3)C[C@H]2NC(=O)C2CC2)n[nH]1` gave nsP2pro primary 1%.
`O=C(CN1c2ccccc2S(=O)(=O)c2ccccc21)Nc1cccc(C(F)(F)F)c1` gave nsP2pro primary inconclusive.
O=C(CCCCCN1C(=O)c2cccc3cccc(c23)C1=O)NO was read as nsP2pro primary -25%&-15%.
For O=C(NCc1ccc(F)cc1)[C@H]1CN2CC[C@H]1C[C@@H]2Cn1cc(-c2ccccc2)nn1 the results were nsP2pro primary inactive.
`Cc1ccc(S(=O)(=O)Nc2ccc(C(=O)Nc3nc(-c4ccccc4)cs3)cc2Cl)cc1` gave nsP2pro primary inconclusive.
Screening O=C(C[C@@H]1CCNC[C@@H]1Cc1cc(CN2CCOCC2)on1)N1CCN(c2ccc(F)cc2)CC1 returned nsP2pro primary 0%.
For Fc1ccc2[nH]c(CN3CCN(c4ccccn4)CC3)cc2c1 the results were nsP2pro primary -18%.
Cc1cn(-c2cccc(NC(=O)c3ccc(C)c(Nc4nccc(-c5cccnc5)n4)c3)c2)cn1 was read as nsP2pro primary inactive.
Screening O=C(NCCc1cccs1)C1CCN(c2cc(C(F)(F)F)ncn2)CC1 returned nsP2pro primary 2%.
COc1ccc(N(C(=O)COc2ccc(Br)cc2)S(=O)(=O)c2ccc(C)cc2)cc1 was read as nsP2pro primary -35%.
COc1ccc(N2C(=O)C(CC(=O)Nc3ccc(Cl)cc3)N(Cc3ccc4c(c3)OCO4)C2=O)cc1 (configuration not stated) was read as nsP2pro primary -19%.
`Cc1ccccc1CNC(=O)c1oc2c(c1C)-c1[nH]ncc1CC2` gave nsP2pro primary -26%.
Cc1nnc2ccc(N3CCN(C(=O)c4ccncc4)CC3)nn12 was read as nsP2pro primary -1%[39.2 µM].
For CC(=O)OC1/C(C)=C/C(=O)C(OC(C)=O)C(C)(C)/C=C/C(C)C(=O)C2(OC(C)=O)CC(C)C(OC(=O)c3ccccc3)C12 (configuration not stated) the results were nsP2pro primary -11%[10 µM].
Cn1cc(-c2ccc3ncc(Cc4ccc5ncccc5c4)n3n2)cn1 was read as nsP2pro primary 60%[activator].
CC1(C)S[C@@H]2[C@H](NC(=O)C(C(=O)Oc3ccc4c(c3)CCC4)c3ccccc3)C(=O)N2[C@H]1C(=O)O (some centres not stated) was read as nsP2pro primary 17%.
COc1ccc(CNC(=O)c2cc3c(=O)[nH]c4ccccc4c3n2C)c(OC)c1 was read as nsP2pro primary -7%.
Cc1cccc(CS(=O)(=O)c2ncc(Cl)c(C(=O)NCc3ccccc3)n2)c1 was read as nsP2pro primary 3.5µM*.
`Cc1ccc(OC[C@H](O)[C@H](C)NC(C)C)c2c1CCC2` gave nsP2pro primary -9%.
CCCCN(Cc1ccccc1)S(=O)(=O)c1cc(Br)cc2c1N(C(=O)C1CC1)CC2 was read as nsP2pro primary -18%.
For CN1CCN(C2=Nc3cc(Cl)ccc3Nc3ccccc32)CC1 the results were nsP2pro primary -18%&5%.
Screening Cn1cccc1-c1noc(C2CCN(C(=O)COc3ccc(F)cc3)CC2)n1 returned nsP2pro primary inactive.
For CSCCC(NC(=O)C1CCCCC1)C(=O)Nc1ccc(F)c(Cl)c1 (configuration not stated) the results were nsP2pro primary -9%.
Cc1nnc(-c2cc(-c3ccsc3)ccn2)n1-c1ccccc1 was read as nsP2pro primary inactive.
`CNC(=S)NS(=O)(=O)c1cc(CCNC(=O)c2cc(Cl)ccc2OC)ccc1OC` gave nsP2pro primary -16%.

These rows are one share of the data (hit frequency here may not be typical).
